Screens (PubChem BioAssay)
TSHR agonist – TSH receptor (human) agonism; P16473; HEK293-CNG-TSHR cells (CNG channel as cAMP sensor), membrane potential dye, cAMP; Potency, µM (doses to about 57.1 µM), without a hit: at the highest dose activation, actives largely listed as activators; 73,000 tested, 0.48% active; AID 926; active = well fitted activation curve of enough size with the parental cells flat; inconclusive = any curve in the parental cells; inactive = parental cells flat and receptor cells flat or falling; also: potency is read from the fitted curve at half-maximal effect; % of control where 0% means no effect; weak receptor curves with flat parental cells got no call and are not listed
Target sequence (P16473 whole entry, looked up): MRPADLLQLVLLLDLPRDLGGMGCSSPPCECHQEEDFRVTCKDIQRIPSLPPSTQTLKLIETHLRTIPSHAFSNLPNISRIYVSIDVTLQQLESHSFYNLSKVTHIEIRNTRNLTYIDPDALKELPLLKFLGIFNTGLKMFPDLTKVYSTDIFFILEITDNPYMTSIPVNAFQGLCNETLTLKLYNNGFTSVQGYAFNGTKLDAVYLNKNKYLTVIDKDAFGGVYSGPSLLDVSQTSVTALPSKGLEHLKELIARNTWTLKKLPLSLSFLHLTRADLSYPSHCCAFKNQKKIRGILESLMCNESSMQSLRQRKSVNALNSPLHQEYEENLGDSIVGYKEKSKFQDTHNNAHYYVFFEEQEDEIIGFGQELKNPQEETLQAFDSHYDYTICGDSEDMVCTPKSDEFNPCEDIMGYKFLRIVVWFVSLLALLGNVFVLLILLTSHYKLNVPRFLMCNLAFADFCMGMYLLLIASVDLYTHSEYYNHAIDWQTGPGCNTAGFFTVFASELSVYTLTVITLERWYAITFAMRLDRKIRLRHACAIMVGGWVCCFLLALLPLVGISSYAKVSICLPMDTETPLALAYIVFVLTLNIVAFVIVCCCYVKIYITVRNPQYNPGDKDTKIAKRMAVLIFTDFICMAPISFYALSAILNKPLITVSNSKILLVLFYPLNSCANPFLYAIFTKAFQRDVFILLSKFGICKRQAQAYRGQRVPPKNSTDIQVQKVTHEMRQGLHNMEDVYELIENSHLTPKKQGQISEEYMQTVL
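HEK 293 cells stably expressing TSHR and a modified CNG channel, with CNG-only parental cells as counterscreen, were preloaded 60 min at room temperature with membrane potential dye containing 100 uM RO 20-1724. Compound exposure was 30 min, and depolarization was read as fluorescence at 590 nm.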
Resorufin autofl – compound fluoresces in the resorufin spectral region | Compound fluorescence, resorufin region 547/598 nm, buffer; active compounds read high | max dye-equivalent concentration, M | 59,000 tested, 0.04% active | AID 588; active = above 10 nM dye equivalent; inconclusive = 1 to 10 nM; inactive = 1 nM or less; a few of its hits are not listed in these tables; also: highest value over a series up to 38 µM
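Tris 100 mM pH 8.0; compound added, 15 min RT; CCD imager read, ex 547 nm/em 598 nm; signal normalized to resorufin standard curve (six concentrations per plate) as dye-equivalent concentration.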
AID923 – qHTS Assay for Allosteric/Competitive Inhibitors of Caspase-1: Spectroscopic Profiling in AFC Spectral Region; compound fluorescence, AFC spectral region (405/520 nm); almost no hit is shown here; Potency, µM (doses to about 57.5 µM), inactives show top-dose fluorescence increase, hits mostly activators; 75,000 tested, 1.1% active; active = well fitted activation curve with a large enough effect; inconclusive = small, poorly fitted or top-dose-only effect;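 also: potency is read from the fitted curve at half-maximal effect; 0% is about no effect; scaled to a free AFC standard on each plate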
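Compound autofluorescence profiled at 405 nm ex/520 nm em during kinetic caspase 1 run (50 nM enzyme, 5 uM Ac-WEHD-AFC, HEPES pH 7.5, 10 mM DTT). Titration up to 57 uM; baseline from regression intercept, normalized to AFC standard curve.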
A647 autofl – compound fluoresces in the A647 spectral region; 59,000 tested, under 10 active; max dye-equivalent concentration, M; Compound fluorescence, A647 channel (570/671 nm), Tris buffer; AID 592; active means above 1 µM dye equivalent; inconclusive means 0.1 to 1 µM; inactive means 0.1 µM or less;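 also: values scaled relative to a standard on each plate; highest value over a series up to 38 µM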
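Spectral profiling of library compounds in pH 8.0 Tris: 15 min room-temperature incubation, single ex/em pair (570/671 nm), response normalized to Alexa 647 equivalents.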
A488 autofl – compound autofluorescence in A488 spectral region; max dye equivalency, M; compound autofluorescence, A488 spectral region, dye equivalency; active compounds read high; 59,000 tested, 0.1% active; active = above 10 nM dye equivalent; inconclusive = 1 to 10 nM; inactive = 1 nM or less; about half of its hits are not listed in these tables;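 also: highest value over a series up to 38 µM; compound alone in buffer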
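Intrinsic compound fluorescence is measured in 100 mM Tris buffer at pH 8.0 following 15 min incubation at room temperature. Intensities at 480 nm excitation/540 nm emission are calibrated to an on-plate A488 concentration series, giving dye-equivalent concentrations.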
An asterisk follows results filed as active; [ ] = remark or other dose. This is a subset; rates above refer to the full screens.

For CC(C)(C)c1ccc(S(=O)(=O)N2CCCC2C(=O)NC2=NCCS2)cc1 (centres undefined) the results were TSHR agonist 4%, Resorufin autofl inactive, AID923 -2.2%, A647 autofl 1e-08 and A488 autofl inactive.
Screening O=C(Nc1ccc(Br)c2cccnc12)c1ccc(Cn2cc(Cl)cn2)o1 returned Resorufin autofl inactive, AID923 -0.8%, A647 autofl 1e-09 and A488 autofl inactive.
O=C(CSc1nnc(C2CC2)n1Cc1ccccc1)c1cc2ccccc2o1 was read as TSHR agonist inconclusive, Resorufin autofl inactive, AID923 1.7%, A647 autofl 1e-09 and A488 autofl inactive.
CCOC(=O)CSc1nnc(-c2ccccc2NC(=O)c2ccccc2)o1 was read as TSHR agonist inconclusive, Resorufin autofl inactive, AID923 0.6%, A647 autofl 1.8e-08 and A488 autofl inactive.
O=CNc1ncn[nH]1 was read as TSHR agonist 0%[11.4 µM], Resorufin autofl inactive, AID923 -3.2%[11.5 µM], A647 autofl 1e-09 and A488 autofl inactive.
O=P(O)(CP(=O)(c1ccccc1)c1ccccc1)c1ccccc1 was read as TSHR agonist 1%, Resorufin autofl inactive, AID923 -0.5%, A647 autofl 1e-09 and A488 autofl inactive.
For COC(=O)c1cc(S(=O)(=O)n2nc(C)cc2C)c(Cl)cc1Cl the results were TSHR agonist -1% and AID923 2.8%.
Screening COc1ccc(S(=O)(=O)N(CCc2ccccc2)CC(=O)N2CCOCC2)cc1 returned TSHR agonist -1% and AID923 1.1%.
Screening CC(NC(=O)Cc1ccccc1)c1nc2ccccc2[nH]1 (centres undefined) returned TSHR agonist -1% and AID923 -0.2%.
`COc1cc(NS(=O)(=O)c2ccc(F)cc2)c(OC)cc1NC(=O)C1CC1` gave TSHR agonist -3%, Resorufin autofl inactive, AID923 1.5%, A647 autofl 3.5e-08 and A488 autofl inactive.
c1c[nH]c(CN2CCOCC2)n1 was read as TSHR agonist 3%[11.4 µM], Resorufin autofl inactive, AID923 2.9%[11.5 µM], A647 autofl 1e-09 and A488 autofl inactive.
Screening COc1ccc2nc(SCC(=O)NC(C)C)[nH]c2c1 returned TSHR agonist 2%, Resorufin autofl inactive, AID923 -1.1%, A647 autofl 2e-09 and A488 autofl inactive.
For CCCCOC(=O)CSC1=C(C#N)C(c2ccc3c(c2)OCO3)CC(=O)N1 (centres undefined) the results were Resorufin autofl inactive, A647 autofl 1e-09 and A488 autofl inactive.
For Cc1cc2ccccc2c(=O)n1CC(=O)NCC(=O)N(C)Cc1ccccc1 the results were TSHR agonist 4%, Resorufin autofl inactive, AID923 -0.6%, A647 autofl 1.9e-08 and A488 autofl inactive.
For CCOc1ccc(S(=O)(=O)N(C)c2ccc(OCC(=O)OCc3c(C)noc3C)cc2)cc1 the results were TSHR agonist 16%, Resorufin autofl inactive, AID923 0.5%, A647 autofl 7.8e-09 and A488 autofl inactive.
N#Cc1nc(-c2ccc(OCc3ccccc3)cc2)oc1NCc1ccco1 was read as TSHR agonist 1%, Resorufin autofl inactive, AID923 1.7%, A647 autofl 3.1e-08 and A488 autofl inactive.
Screening COc1ccc2c(c1)C(C)=CC(C)(C)N2C(=O)CNCc1ccc2c(c1)OCO2 returned TSHR agonist inconclusive, Resorufin autofl inactive, AID923 0.8%, A647 autofl 2.7e-08 and A488 autofl inactive.
COc1ccccc1CNC(=O)Nc1cccs1 was read as TSHR agonist 4% and AID923 1.5%.
Screening CCCCC/C=C\C[C@H](O)/C=C\c1cccc(C[C@H](O)CCCCO)n1 returned TSHR agonist -4%, Resorufin autofl inactive, AID923 -4.4%, A647 autofl 5.8e-09 and A488 autofl inactive.
`CCOc1ccccc1OCC(O)CNC` (centres undefined) gave TSHR agonist 3%, Resorufin autofl inactive, AID923 -1.3%, A647 autofl 3.1e-08 and A488 autofl inactive.
`COCc1[nH]nc2c1C(c1ccccc1Cl)C(C#N)=C(N)O2` (centres undefined) gave TSHR agonist 3%, Resorufin autofl inactive, AID923 1.8%, A647 autofl 1e-09 and A488 autofl inactive.
For O=C(O)c1cc2ccccc2c(S(=O)(=O)O)c1O the results were TSHR agonist 6%[11.4 µM], Resorufin autofl inactive, AID923 -1.0%[11.5 µM], A647 autofl 2.9e-08 and A488 autofl inactive.
Screening CCOc1ccc(OCc2ccc(C(=O)OCc3ccccn3)o2)cc1 returned TSHR agonist inconclusive, Resorufin autofl inactive, AID923 0.9%, A647 autofl 1.6e-08 and A488 autofl inactive.
CCCc1cc(=O)[nH]c(NCc2ccc(Cl)cc2)n1 was read as TSHR agonist -1%, Resorufin autofl inactive, AID923 -6.9%, A647 autofl 1.7e-08 and A488 autofl inactive.
`CCOc1ccccc1-c1cc(-c2ccc(OC)cc2)nc2c1c(=O)n(C)c(=O)n2C` gave TSHR agonist inconclusive, Resorufin autofl inactive, AID923 2.0%, A647 autofl 5.6e-09 and A488 autofl inactive.
CCN(CC)c1ccc(NC(=O)C2CCCN(S(=O)(=O)c3cccnc3)C2)c(C)c1 (centres undefined) was read as TSHR agonist inconclusive and AID923 -0.5%.
Screening Clc1ccc2c(c1)CNc1c(ncnc1N1CCOCC1)O2 returned TSHR agonist 2%, Resorufin autofl inactive, AID923 -0.7%, A647 autofl 1e-09 and A488 autofl inactive.
For Fc1ccc(CN2CCSCC2)cc1Br the results were TSHR agonist 2%, Resorufin autofl inactive, AID923 -2.3%, A647 autofl 1.3e-08 and A488 autofl inactive.
COc1ccc(C2=NOC(C(=O)Nc3ccc(C(C)=O)cc3)C2)cc1OC (centres undefined) was read as TSHR agonist 8%, Resorufin autofl inactive, AID923 2.9%, A647 autofl 2e-08 and A488 autofl inactive.
c1ccc(OCCn2cnc3ccccc32)cc1 was read as TSHR agonist 18%, Resorufin autofl inactive, AID923 -0.2%, A647 autofl 2.3e-09 and A488 autofl inactive.
Nc1nnc(COc2ccc(Br)cc2Br)s1 was read as TSHR agonist 2%[11.4 µM] and AID923 -1.6%.
`COc1cccc(C2C(C(=O)c3cccs3)=C(O)C(=O)N2CCN(C)C)c1OC` (centres undefined) gave TSHR agonist 4%, Resorufin autofl inactive, AID923 -0.1%, A647 autofl 2.8e-08 and A488 autofl inactive.
Screening CCC(=O)Oc1oc(-c2ccccc2)nc1C=Nc1ccccc1OC returned Resorufin autofl inactive, A647 autofl 1.7e-09 and A488 autofl inactive.
For COc1ccc(OC)c2c(N)c(C#N)c(C(F)(F)C(F)(F)F)nc12 the results were Resorufin autofl inactive, A647 autofl 2.9e-08 and A488 autofl inactive.
For CCC(=O)N1CCN=C1SCc1ccccc1Cl the results were TSHR agonist 1% and AID923 2.2%.
`Cn1cnc([N+](=O)[O-])c1Sc1nc(N)nc2c1ncn2[C@H]1C[C@H](O)[C@@H](CO)O1` gave TSHR agonist 0%[11.4 µM], Resorufin autofl inactive, AID923 0.6%[11.5 µM], A647 autofl 1.2e-08 and A488 autofl inactive.
For CC(C)(C)OC(=O)N1CCC[C@H]1C(=O)NCC1CCC(C(=O)O)CC1 (some centres undefined) the results were TSHR agonist 0%, Resorufin autofl inactive, AID923 0.7%, A647 autofl 4.9e-09 and A488 autofl inactive.
O=S(=O)(c1cccs1)n1nnc2ccccc21 was read as TSHR agonist -3% and AID923 2.2%.
`O=C(Nc1c[nH]c(=O)[nH]c1=O)Oc1ccccc1` gave TSHR agonist -4%[11.4 µM], Resorufin autofl inactive, AID923 -0.5%[11.5 µM], A647 autofl 1e-09 and A488 autofl inactive.
`Cc1nc(CNS(=O)(=O)c2ccc3c(c2)CCCC3)cs1` gave TSHR agonist 3% and AID923 0.4%.
c1ccc(-c2noc(-c3cccnc3)n2)nc1 was read as TSHR agonist inconclusive, Resorufin autofl inactive, AID923 0.2%, A647 autofl 4.8e-09 and A488 autofl inactive.
For CC(=O)[C@H](C(=N)C#N)C(=O)Nc1ccccc1 the results were TSHR agonist -3%[11.4 µM], Resorufin autofl inactive, AID923 -1.1%[11.5 µM], A647 autofl 1e-09 and A488 autofl inactive.
For CCOC(=O)CNC(=O)CSc1nnnn1-c1cc(C)ccc1C the results were TSHR agonist -7%, Resorufin autofl inactive, AID923 -0.2%, A647 autofl 4.2e-09 and A488 autofl inactive.
c1ccc(-c2csc3ncn4cnnc4c23)cc1 was read as TSHR agonist 5% and AID923 0.7%.
`CCOC(=O)N1CCC(NC(=O)c2cccnc2SC)CC1` gave TSHR agonist -1%, Resorufin autofl inactive, AID923 -0.3%, A647 autofl 4.5e-08 and A488 autofl inactive.
`COc1ccc(CNC(=O)C2CC=CCC2C(=O)O)cc1OC` (centres undefined) gave TSHR agonist -5%, Resorufin autofl inactive, AID923 4.4%, A647 autofl 1e-09 and A488 autofl inactive.
Screening CCc1nc(C)cn1S(=O)(=O)c1cc(Br)ccc1OC returned TSHR agonist 23%, Resorufin autofl inactive, AID923 0.9%, A647 autofl 1.7e-08 and A488 autofl inactive.
Screening CCOC(=O)C1CCCN(c2ncnc3c2cnn3-c2ccc(Cl)cc2)C1 (centres undefined) returned TSHR agonist 16%, Resorufin autofl inactive, AID923 -0.9%, A647 autofl 1e-09 and A488 autofl inactive.

Entries from the list above containing a COOH group (three):
For O=C(O)c1cc2ccccc2c(S(=O)(=O)O)c1O the results were TSHR agonist 6%[11.4 µM], Resorufin autofl inactive, AID923 -1.0%[11.5 µM], A647 autofl 2.9e-08 and A488 autofl inactive.
For CC(C)(C)OC(=O)N1CCC[C@H]1C(=O)NCC1CCC(C(=O)O)CC1 (some centres undefined) the results were TSHR agonist 0%, Resorufin autofl inactive, AID923 0.7%, A647 autofl 4.9e-09 and A488 autofl inactive.
`COc1ccc(CNC(=O)C2CC=CCC2C(=O)O)cc1OC` (centres undefined) gave TSHR agonist -5%, Resorufin autofl inactive, AID923 4.4%, A647 autofl 1e-09 and A488 autofl inactive.

Further compounds.
Screening COc1cccc(N2C(=O)C3CCCN3C2c2ccc(F)cc2)c1 (centres undefined) returned TSHR agonist 3%, Resorufin autofl inactive, AID923 2.2%, A647 autofl 4e-09 and A488 autofl inactive.
`COc1cccc(-n2nnnc2SCC(=O)NCc2ccco2)c1` gave Resorufin autofl inactive, AID923 0.8%, A647 autofl 1e-09 and A488 autofl inactive.
For COC(=O)c1cc(Oc2ccc(C(=O)OC)cc2N)cc(C(=O)OC)c1 the results were TSHR agonist 14%, Resorufin autofl inactive, AID923 1.3%, A647 autofl 1e-09 and A488 autofl inactive.
For CCCCNc1cc(NC(C)=O)cc2cc(OC)c(OC)cc12 the results were TSHR agonist -12% and AID923 2.0%.
`CCOC(=O)C1CCN(C(=O)CCc2ccccc2)CC1` gave TSHR agonist -2%, Resorufin autofl inactive, AID923 -0.1%, A647 autofl 1.3e-08 and A488 autofl inactive.
CCOC(=O)c1sc2ccc(S(=O)(=O)N3CCCCC3)cc2c1N was read as TSHR agonist inconclusive, Resorufin autofl inactive, AID923 -0.2%, A647 autofl 1.3e-08 and A488 autofl inactive.
For Fc1cnc(N2CCN(c3ccccc3)CC2)nc1N1CCN(c2ccccc2)CC1 the results were TSHR agonist inconclusive, Resorufin autofl inactive, AID923 0.1%, A647 autofl 3.5e-09 and A488 autofl inactive.
`Cc1cc(N2CCC(C(=O)NC3CC3)CC2)nc(-c2ccccc2)n1` gave TSHR agonist 2%, Resorufin autofl inactive, AID923 -1.0%, A647 autofl 1e-09 and A488 autofl inactive.
`CC(C)C(=O)Nc1cccc(-c2nc3ccccc3o2)c1` gave TSHR agonist 8%, Resorufin autofl inactive, AID923 -0.6%, A647 autofl 4e-09 and A488 autofl inactive.
CCCS(=O)(=O)N1CCC(C(=O)NCCc2ccc(OC)c(OC)c2)CC1 was read as TSHR agonist -3%, Resorufin autofl inactive, AID923 -0.1%, A647 autofl 1e-09 and A488 autofl inactive.
`O=C(Nc1ccc(F)cc1F)c1noc2c1CCC2` gave TSHR agonist -5%, Resorufin autofl inactive, AID923 0.4%, A647 autofl 2.1e-08 and A488 autofl inactive.
